KCNQ2 block: KCNQ2 potassium channel inhibitors, primary screen, cell-based, CHO-K1, FluxOR thallium flux, B-score (AID 2156) | O88943 | 20 min; active compounds read low; only compounds with negative scores are shown here; some inactives read as strong as hits | B-score at 10 µM | 310,000 compounds, 1.1% hits;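 active = fluorescence ratio B-score at most minus 3 library SDs, with starting brightness B-score within 2 library SDs, cut at about -5.5 in these data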
Target sequence (O88943 whole entry, looked up): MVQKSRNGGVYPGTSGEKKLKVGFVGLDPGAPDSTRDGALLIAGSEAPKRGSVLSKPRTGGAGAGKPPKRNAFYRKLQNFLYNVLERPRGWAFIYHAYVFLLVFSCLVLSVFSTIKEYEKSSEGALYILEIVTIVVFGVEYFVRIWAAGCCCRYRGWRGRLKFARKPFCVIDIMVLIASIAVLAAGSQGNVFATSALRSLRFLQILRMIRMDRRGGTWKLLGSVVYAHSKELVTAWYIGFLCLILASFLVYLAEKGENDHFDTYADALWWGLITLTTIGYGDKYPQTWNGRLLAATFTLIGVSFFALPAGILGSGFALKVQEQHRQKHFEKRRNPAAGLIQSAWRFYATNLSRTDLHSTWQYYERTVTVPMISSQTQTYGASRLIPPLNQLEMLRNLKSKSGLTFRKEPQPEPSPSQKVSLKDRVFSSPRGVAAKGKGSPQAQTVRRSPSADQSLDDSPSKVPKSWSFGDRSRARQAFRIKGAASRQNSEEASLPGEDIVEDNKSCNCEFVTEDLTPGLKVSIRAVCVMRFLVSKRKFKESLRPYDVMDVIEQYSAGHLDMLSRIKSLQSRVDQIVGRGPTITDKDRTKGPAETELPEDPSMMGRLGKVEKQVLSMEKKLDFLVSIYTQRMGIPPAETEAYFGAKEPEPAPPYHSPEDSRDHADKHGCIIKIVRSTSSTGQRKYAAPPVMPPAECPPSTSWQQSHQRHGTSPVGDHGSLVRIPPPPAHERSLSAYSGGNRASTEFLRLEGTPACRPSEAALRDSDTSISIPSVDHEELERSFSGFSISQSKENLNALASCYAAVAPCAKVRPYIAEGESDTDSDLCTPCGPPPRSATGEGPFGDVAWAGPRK
KCNQ2 block baseline: also measured in KCNQ2 block; calls as there; B-score; measured here: initial fluorescence intensity artifact check;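 brightness before thallium and not channel activity; 0 = typical well and far values either way flag optical interference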
Active calls of the source: *; i = inactive. The list is partial. The share of hits here may be higher or lower than overall.

Each structure is followed by: KCNQ2 block baseline	KCNQ2 block
CCOc1ccccc1CN1CCN(Cc2ccc3cc(F)ccc3n2)CC1CCO (stereo not given)
→ -0.74	i
O=C(CSc1ncn(-c2ccccc2)n1)Nc1nc(-c2ccccc2)cs1
→ 3.23	i
COC(=O)CSc1nnc(-c2ccccc2OC)o1
→ -0.06	i
Fc1ccc(C2N(c3ccccc3)C(=S)N3CCCN23)cc1 (stereo not given)
→ -0.1	i
CCOc1cc(NC(=O)C2CCCCC2)c(OCC)cc1NC(=O)c1ccccn1
→ -1.89	i
Cc1ccc(NC(=O)c2ccccc2-c2ccccc2C(=O)O)cc1C
→ 1.77	i
O=C(Nc1cc(Sc2ccccn2)cc([N+](=O)[O-])c1)c1ccc(Cl)cc1
→ -1.37	i
CCOC(=O)c1sc(-c2ccccc2)cc1NC(=O)Nc1ccc([N+](=O)[O-])cc1
→ -1.42	i
Cc1ccc(-n2ncc3c2CCCC3NC(=O)CCn2ccnc2C)cc1C (stereo not given)
→ 0.02	i
CCn1cc(C(=O)NCCCO)c(=O)c2cc(F)c(N3CCN(C)CC3)cc21
→ 0.09	i
Cc1nn(C/C(C#N)=N\O)c(C)[n+]1N
→ -0.05	i
Cc1c(NC(=O)CSc2ccccc2Cl)c(=O)n(-c2ccccc2)n1C
→ 0.45	i
Cn1c(=O)oc2cc(S(=O)(=O)NCC3CCCO3)ccc21 (stereo not given)
→ -0.39	i
O=C(CSc1nnc(Cc2ccccc2)n1Cc1ccco1)NC12CC3CC(CC(C3)C1)C2
→ -0.22*	-7.71*
CCOc1ccc(-c2nnn(CC(=O)c3ccc4c(c3)OCCO4)n2)cc1OCC
→ -1.48	i
COc1ccc([N+](=O)[O-])cc1C(=O)NCCOc1ccc(Cl)cc1
→ 0.14	i
CCCCOc1ccc(CSC2=NCCN2)cc1[N+](=O)[O-]
→ 0.71	i
Cn1nccc1C(=O)N1CCN(c2ccc(F)cc2)CC1
→ -0.07	i
COc1ccc(/C=C/C(=O)C2CC2)cc1COc1c(C)cccc1C
→ -1.85	i
Cc1ccc(S(=O)(=O)Nc2cccc(-c3ccc(N4CCCCCC4)nn3)c2)cc1C
→ -0.53	i
Cc1cccc(NS(=O)(=O)c2cccc(C(=O)NCC3(N4CCCCC4)CCCCC3)c2)c1
→ -0.68	i
COc1cccc(CNC(=O)c2cccc(S(=O)(=O)N3CCN(C)CC3)c2)c1
→ -0.64	i
Cc1ccc(S(=O)(=O)Nc2ccc(C(N)=O)cc2)cc1[N+](=O)[O-]
→ 1.12	i
Cc1cccc(NC(=O)/C(C#N)=C/c2ccc[nH]2)c1C
→ -1.82	i
CC(=O)NCCC(=O)Nc1cc(S(=O)(=O)N2CCOCC2)ccc1N1CCCC1
→ 0.99	i
COc1ccc(/C=C/C(=O)Nc2ccccc2C(=O)O)cc1
→ -0.62	i
O=C(NCCc1c[nH]c2ccccc12)C1CCC(Cn2c(=S)[nH]c3ccccc3c2=O)CC1 (stereo not given)
→ -0.07	i
Cc1ccc(N(CC(=O)N/N=C/c2ccc(OC3CSC3)cc2)S(=O)(=O)c2ccccc2)cc1
→ 1.46	i
CCOC(=O)c1ccccc1NC(=O)COC(=O)C(CCSC)NC(=O)COc1ccccc1 (stereo not given)
→ -0.26	i
CCOC(=O)C1CCCN(c2c(C(=O)c3ccccc3)cnc3ccc(OC)cc23)C1 (stereo not given)
→ 2.63	i
CCOC(=O)c1oc2ccccc2c1NC(=O)COc1cccc(OC)c1
→ -0.16	i
CCOc1ccc(-c2c(C#N)c(N)nc3sc(C(=O)c4ccccc4)c(N)c23)cc1
→ 2.04	i
O=C(O)c1cc(Cl)c(Cl)cc1C(=O)N1CCCC1
→ 0.43	i
CC(CC(=O)Nc1ccc(S(=O)(=O)Nc2ncccn2)cc1)c1ccccc1 (stereo not given)
→ -1.14	i
O=C(Nc1ccc(Cl)cn1)c1cc2ccccc2o1
→ 1.33	i
COc1ccc(N/C=C2\C(=O)CCc3c2oc2cc(Cl)c(O)c(Cl)c32)cc1
→ -0.34	i
CN(C(=O)CCc1nc2ccccc2s1)c1ccccc1
→ 0.33	i
c1ccc(NC2=Nc3ccccc3CC2)cc1
→ -1.8	i
O=C(OCc1nnc(-c2ccc(Cl)cc2)o1)C12CC3CC(CC(O)(C3)C1)C2
→ -0.31	i
O=C(CSCc1c(F)cccc1Cl)NCCc1ccccc1
→ -0.4	i
CCN(Cc1ccc(OC)c(F)c1)C(=O)CCl
→ -2.54	i
CN1CCc2nc(NC(=O)c3cccc(OC(F)F)c3)sc2C1
→ -1.98	i
CC1CC(C)CN(C(=O)c2ccc(S(=O)(=O)N3CCCCC3)cc2)C1 (stereo not given)
→ 1.95	i
CCS(=O)CCSC(=N)N (stereo not given)
→ -0.65	i
O=C(OCc1nc2ccccc2s1)c1cnccn1
→ 1.91	i
COc1ccccc1CNC1CCN(Cc2ccccc2)CC1
→ 0.53	i
NC(=O)C1CCN(C(=O)c2cc3c(s2)CCCC3)CC1
→ 2.12	i
Cc1cccc(OCC(=O)OCC(=O)c2c(N)n(C)c(=O)n(C)c2=O)c1
→ -0.04	i
CC(C)OC(=O)c1nn2c(C(F)(F)F)cc(-c3ccc(Br)o3)nc2c1Br
→ 0.9	i
CCc1ccc2nc(NC(=O)C3CSC4(C)CCC(=O)N34)sc2c1 (stereo not given)
→ -1.19	i

Continuation:
Each structure is followed by: KCNQ2 block baseline	KCNQ2 block
CCc1ccc(Nc2n[n+](-c3ccccc3)c(-c3ccc(OC)c(Br)c3)s2)cc1
→ 0.15	i
CCOC(=O)CNC(=O)C1(/C=C/c2ccccc2)CC(=O)N1c1ccc(C)cc1 (stereo not given)
→ -0.08	i
O=C(CCc1nnc(CCCCc2ccccc2)o1)NCCCc1cccnc1
→ 0.06	i
COc1ccc(-n2c(N)c(C(=O)NCc3ccco3)c3nc4ccccc4nc32)cc1OC
→ 1.18	i
Cc1cc(C)c(NC(=O)CSc2nnc(CN3CCOCC3)n2C)c(C)c1
→ 0.35	i
Cc1cc(NS(=O)(=O)c2ccc(NC(=S)Nc3ccc(Cl)cc3C)cc2)no1
→ -1.49	i
COc1ccc(/C=N/Nc2cc(C)nc3ccc(OC)cc23)c(OC)c1
→ -2.25*	-8.96*
CC(C)(C)NC(=O)CSc1ccc(C(C)(C)C)cc1
→ 2.29	i
COc1ccc(-c2cc(C(=O)N3CCCCCC3)c3cc(C)ccc3n2)cc1
→ -2.59*	-8.46*
CC1CCN(C(=O)CSc2nc3ncccc3[nH]2)CC1
→ -0.19	i
O=C(NCC(c1cccs1)N1CCOCC1)c1ccccc1NS(=O)(=O)c1ccc(Cl)cc1 (stereo not given)
→ -0.56	i
Cc1occc1C(=O)NNC(=S)NCc1ccccc1
→ 0.04	i
CCOC(=O)c1cnc(SC)nc1Oc1cccc(NS(=O)(=O)c2ccc(Cl)cc2)c1
→ -0.21	i
COc1ccc(CN=C(NS(=O)(=O)c2cccs2)SC)cc1
→ -1.86	i
Cc1ccc(-c2nc(C3CCCN(S(=O)(=O)c4ccc(C)cc4)C3)no2)cc1 (stereo not given)
→ 1.76	i
CN(C)C(=O)c1ccc(=O)n(Cc2ccc(Cl)cc2Cl)c1
→ -0.65	i
O=C(Nc1cccc(-n2cccn2)c1)C1CCCN(Cc2cccc(F)c2F)C1 (stereo not given)
→ 0.6	i
CCOC(=O)N1CCC2(CC1)C(C#N)=C(N)OC1=C2C(=O)CC(C)(C)C1
→ -1.17	i
CCOC(=O)C1=C(CS(=O)(=O)c2ccccc2)NC(=O)NC1c1ccccc1OCC (stereo not given)
→ 7.24	i
O=C(Nc1nc2ccccc2c2nc3ccccc3n12)c1ccc(F)cc1
→ -0.55	i
CCCc1c(O)nc(SC2CC(=O)N(c3ccc(C)c(Cl)c3)C2=O)[nH]c1=O (stereo not given)
→ 0.6	i
O=C(CN1CCCC(O)C1)N1c2ccccc2Sc2ccc(C(F)(F)F)cc21 (stereo not given)
→ -0.03	i
Brc1ccc(CSc2nccn2-c2ccccc2)cc1
→ -2.25	i
CCc1ccc(NC(=O)N(CCOC)C2CCN(C(C)=O)CC2)cc1
→ -1.46	i
Cc1ccc(CNC(=O)C(OC(=O)c2cccs2)C(C)C)cc1 (stereo not given)
→ 0.18	i
Cc1cc(C)c2nc(N(CCN(C)C)C(=O)c3ccc4ccccc4c3)sc2c1
→ 3.22*	-6.02*
O=C(c1ccccc1)c1cccn1CC(=O)N1CCN(c2ccccc2)CC1
→ 1.05	i
CCOC(=O)Cn1nc(C)c(NC(=O)COc2ccccc2)c1C
→ -0.04	i
COc1ccc(F)cc1S(=O)(=O)NCC1CCCO1 (stereo not given)
→ -1.11	i
Cn1c(COc2nnc(-c3ccc(Cl)cc3)c3ccccc23)nc2ccccc21
→ 1.38	i
CCC(C)(C)n1nnnc1C(c1ccc(C)cc1)N1CCSCC1 (stereo not given)
→ 0.3	i
Cc1ccc(CNC(=O)C2CC(=O)OC23CCCC3)c(C)c1 (stereo not given)
→ 0.52	i
CC(C)CNc1oc(-c2ccccc2Cl)nc1C#N
→ -0.19	i
COc1cccc(/C=C/c2ccncc2)c1OC
→ 2.36	i
COc1ccc(-n2nc3c(N4CCC(C(=O)NCCc5ccco5)CC4)nnc(C)c3c2C)cc1
→ -0.44	i
CCN1CCN(C(=O)c2cc(S(=O)(=O)N3CCCCC3)ccc2Cl)CC1
→ 1.2	i
Cc1cccc(C(=O)OC(C)C(=O)NC2CCCc3ccccc32)c1O (stereo not given)
→ -2.42*	-7.78*
CCn1cc(CN2CCC(n3nccc3NC(=O)c3ccc(OC)cc3)CC2)cn1
→ 0.57	i
CCOC(=O)C(=O)c1c(-c2ccccc2)nc2ccccn12
→ 0.74	i
O=C(CC(Sc1ccccc1)c1cccs1)c1ccco1 (stereo not given)
→ 1.49	i
O=C(c1ccco1)N1CCN(C(=O)c2cc(-c3ccncc3)nc3ccc(Br)cc23)CC1
→ 0.21	i
CCOC(=O)Cn1nc(-c2ccccc2)c2cnc3ccc(C)cc3c21
→ -0.36	i
COc1ccc(N/C(N)=N/c2nc(CSc3ccc(Cl)cc3)cc(=O)[nH]2)cc1
→ 0.23	i
NC(=O)CC(NC(=O)c1ccc(Br)cc1)c1ccc(N2CCN(c3ccccc3)CC2)c([N+](=O)[O-])c1 (stereo not given)
→ 2.01	i
CCCn1c(=O)c(C(=O)Nc2ncccc2C)c(O)c2ccccc21
→ 0.42	i
CC(=O)c1c(C)[nH]c(C(=O)NCCc2cccc(C)c2)c1C
→ 0.07	i
COc1ccc(C2C3=C(CCCC3=O)N(CC(=O)O)C3=C2C(=O)CCC3)cc1Cl
→ 0.66	i
Cc1nc2c(ncn2-c2ccccc2)c(=O)n1NC(=O)CN1CCN(C)CC1
→ -0.01	i
COc1cccc2c(=O)cc(C)n(CC(=O)Nc3ccc(Br)cc3)c12
→ -1.88	i
CCOCCCNC(=O)C1CC(=O)N(CCc2ccccc2)C1 (stereo not given)
→ 0.07	i

(list continues)
Each structure is followed by: KCNQ2 block baseline	KCNQ2 block
Cc1csc2ncc(C(=O)Nc3ccc4c(c3)OCCO4)c(=O)n12
→ 1.05	i
Cc1cccc(N(C)Cc2nnc(-c3cccc(Br)c3)o2)c1
→ -0.52	i
O=C(CSc1ccc2c(c1)OCCO2)NCc1ccccc1
→ 0.75	i
Cc1cc(C)cc(NC(=O)C(Sc2nnc(C)c(=O)[nH]2)c2ccccc2)c1 (stereo not given)
→ -0.25	i
C/C(=N\NC(=O)CCc1ccccc1)C1C(=O)c2ccccc2C1=O
→ -0.23	i
COc1ccccc1NS(=O)(=O)c1cccc(NC(=S)NCCN2CCOCC2)c1
→ 1.76	i
O=C(NCc1ccc(Cl)cc1)C(=O)NCC1CCCN1S(=O)(=O)c1cccs1 (stereo not given)
→ -0.01	i
CC(C)N(C(=O)CSc1nnc(NC(=O)c2ccco2)s1)C(C)C
→ 0.6	i
CCN(CC)CCN1C(=O)c2ccccc2NC1c1cccc(F)c1 (stereo not given)
→ 0.02	i
O=C(Nc1ccccc1F)c1cc(S(=O)(=O)N2CCCCC2)cs1
→ -0.01	i
Cc1ccc(NC(=O)c2cc(NC(=O)c3ccco3)ccc2N2CCOCC2)cc1
→ 0.45	i
CC(=O)c1ccc(-n2nnnc2SCC(=O)Nc2cccc(NC(=O)c3ccco3)c2)cc1
→ 0.77	i
C#CCN(C(=O)c1cc(COc2cccc(C(F)(F)F)c2)on1)C1CCCCC1
→ 0.1	i
CCOC(=O)/C(N=Nc1ccc2c(c1)OCO2)=C(\C)O
→ -0.49	i
Cc1cc(C(=O)NNc2c(Cl)cccc2Cl)no1
→ -0.93	i
COc1ccc(-c2ccc(C)cc2)cc1[C@H]1[C@H]2C=CC[C@@H](C)[C@@H]2C(=O)N1Cc1ccccc1
→ -1.63	i
O=C(Nc1ccc(Cl)c(C(F)(F)F)c1)NC1CC2CCCC(C1)N2Cc1ccccc1 (stereo not given)
→ -1.74	i
Cc1cc(C)c(S(=O)(=O)N2CCN(C(=O)N3CCOCC3)CC2)c(C)c1
→ 3.56	i
N#CC1=C(N)Oc2[nH]c(=S)[nH]c(=O)c2C12C(=O)Nc1ccccc12 (stereo not given)
→ -0.19	i
